From PubChem BioAssay
Sfp PPTase inh = inhibitors of Bacillus subtilis Sfp phosphopantetheinyl transferase. Q9F4F7. Biochemical Sfp PPTase activity, qHTS. Potency, µM, inactives show max response, negative = inhibition, hits mostly inhibitors. actives 3.5% (n = 310,000). AID 1490; active = well fitted inhibition curve with a large enough effect; inconclusive = small, poorly fitted or top-dose-only effect, or another doubt; inactive = no such curve, though single readings can be large or run the other way;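 note: the enzyme is Sfp with the accession as filed and its product quenches rhodamine fluorescence; potency is the fitted concentration of half-maximal effect; 0% = enzyme reaction without inhibitor and -100% = no enzyme wells; top concentration of the series not given in the record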
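After 15 min at room temperature with compound, 15 nM Sfp received 5 uM rhodamine-CoA plus 12.5 uM BHQ-2-ybbR (50 mM Hepes pH 7.6, 10 mM MgCl2). Rate came from the fluorescence difference over 30 min, ex 525/em 598 nm.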
gsp antag = gsp mutant antagonism; gsp-mutant cells, cAMP HTRF, 30 min; control for the full effect not named in the record; Potency, µM (highest dose often 76.9 µM), inactives show at the top dose activity change, negative = inhibition, actives largely listed as inhibitors; actives 0.4% (n = 340,000); AID 624288; active = falling curve of any shape with a large fitted effect; inconclusive = falling curve, mostly with a smaller effect; inactive = flat or rising curve; cell line not stated here;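 note: intracellular cAMP measured with PDE inhibitor Ro 20-1724 present during compound exposure; potency is the fitted concentration of half-maximal effect; % is set by controls: 0 for no effect and ±100 for the full control effect; nearly all actives have a fitted effect of over 65% in size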
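HTRF cAMP measurement after 30 min RT detection following 30 min, 37C compound treatment alongside […] (added as 300 uM solution) in G418-selected cells seeded at 2000/well and grown 16–24 h.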
D2 agonist = human D2 receptor agonism in beta-arrestin assay; P14416; DiscoveRx PathHunter D2 beta-arrestin, luminescence, 90 min; 100% = 57 uM dopamine signal; activation, % (no concentration beside the values); actives 0.084% (n = 360,000); AID 624465; in the data active = activation above about 40%; inconclusive = about 15% to 40%; inactive = below about 15%; note: compound concentration not given in the record; the text of the record calls up to 30% inactive
Target sequence (P14416 whole entry, looked up): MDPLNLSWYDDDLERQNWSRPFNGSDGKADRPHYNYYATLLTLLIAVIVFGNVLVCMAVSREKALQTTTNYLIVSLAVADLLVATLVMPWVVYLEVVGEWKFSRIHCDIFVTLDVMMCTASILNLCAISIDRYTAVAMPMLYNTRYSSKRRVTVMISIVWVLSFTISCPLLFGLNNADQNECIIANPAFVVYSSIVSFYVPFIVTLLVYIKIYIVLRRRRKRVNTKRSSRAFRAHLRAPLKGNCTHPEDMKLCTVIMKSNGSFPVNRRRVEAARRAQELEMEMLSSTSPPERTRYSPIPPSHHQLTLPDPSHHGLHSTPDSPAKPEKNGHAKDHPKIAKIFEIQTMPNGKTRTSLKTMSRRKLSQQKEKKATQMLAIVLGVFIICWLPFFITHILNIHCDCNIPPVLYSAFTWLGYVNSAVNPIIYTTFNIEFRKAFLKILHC
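DiscoveRx PathHunter D2 beta-arrestin cells (2,100/well) attached overnight, then compound-stimulated 90 min at 37 C in HBSS/10 mM HEPES/0.1% Tween-20 buffer; beta-galactosidase complementation read by luminescence after 1 h at ambient temperature. Dopamine 57 uM final (EC100) as control.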
Menin MLL FP FL = inhibitors of human menin-MLL interaction, wild-type MLL peptide | Fluorescence polarization, fluorescein-MLL peptide displacement from menin | FP activity change, % at 61.4 µM | 290,000 tested, under 10 active; inconclusive = falling polarisation curve, or a change in total fluorescence; inactive = total fluorescence flat and polarisation flat or rising; no compound was filed as active; the % refers to the polarisation; negative = inhibition;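 note: % of control where 0% means no effect; inhibitors lower the polarisation; unlabelled MLL peptide was the positive control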
gsp agonist = agonists of gsp mutant (McCune-Albright syndrome); Potency, µM (doses to about 76.9 µM), for the others: at the top dose activation (cAMP increase), most hits filed as activators; actives 0.13% (n = 340,000); gsp mutant cells, cAMP HTRF, 30 min; control for the full effect not named in the record; active = well fitted activation curve with a large enough effect; inconclusive = small, poorly fitted or top-dose-only effect, or another doubt; inactive = no such curve, though single readings can be large or run the other way; cell line not stated here;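 note: phosphodiesterase inhibitor Ro 20-1724 added with compounds to block cAMP breakdown; potency is the fitted concentration of half-maximal effect; nearly all actives have a fitted effect of over 60% in size; about a fifth of the inactives were tested at one dose only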
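Cells stably selected in G418 were plated at 2000/well, grown 16-24 hr, then given compounds in DMSO with the PDE inhibitor […] (300 uM solution added) for 30 min at 37C; cAMP was read by HTRF.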
ClpP mod = qHTS Assay for Activators of ClpP; actives 1.9% (n = 340,000); Potency, µM (series often up to 57.5 µM), without a hit: at the top dose activity change, negative = active; ATP-dependent Clp protease proteolytic subunit (Bacillus subtilis (strain 168)), P80244; purified B. subtilis ClpP, FRET peptide cleavage, 20 min; active = well fitted falling curve with a large enough effect; inconclusive = small, poorly fitted or top-dose-only effect; inactive = no such curve, though single readings can be large or run the other way; note: potency is the fitted concentration of half-maximal effect; the source files actives as falling curves though it sought activators and does not explain the sign; nearly all actives have a fitted effect of over 65% in size; many hits overshoot -100%
Target sequence (P80244 whole entry, looked up): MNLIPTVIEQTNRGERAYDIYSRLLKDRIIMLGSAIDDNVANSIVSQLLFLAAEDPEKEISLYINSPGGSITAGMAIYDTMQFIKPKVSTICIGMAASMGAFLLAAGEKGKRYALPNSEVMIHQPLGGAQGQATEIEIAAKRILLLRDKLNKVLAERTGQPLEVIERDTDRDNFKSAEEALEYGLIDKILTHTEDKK
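FRET quenching reversal measured ClpP activation: 10 microg/mL B. subtilis ClpP at pH 8 with the FRET-FV decapeptide, read at 430 nm after 320 nm excitation. The 20-min minus 0-min signal was scaled between DMSO/no-enzyme wells and ADEP (5.8 microM final).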
PINK1 expr mod = PINK1 expression modulation; PINK1 immunofluorescence, high-content cytometry, 24 h; actives 0.2% (n = 410,000); Potency, µM (doses to about 76.6 µM), for inactives: top-dose activation (PINK1 increase), hits mostly activators; AID 624263; active = well fitted activation curve with a large enough effect; inconclusive = small, poorly fitted or top-dose-only effect; inactive = flat fitted curve, though single readings scatter; cell line not stated here;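 note: potency is the fitted concentration of half-maximal effect; % of control where 0% means no effect; nearly all actives have a fitted effect of over 65% in size; a mitochondrial uncoupler was the plate control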
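A stable cell line was treated with compounds at 5 concentrations for 24 hours, with CCCP as control. PINK1 levels and mitochondrial localization were measured by immunofluorescence with mitochondrial, cell and nuclear markers after fixation, read by laser-scanning cytometry.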
* = called active by the depositor; ? = inconclusive; / = no result given; & = joins results of further samples; [ ] = another dose, or the depositor's remark.

SMILES | Sfp PPTase inh | gsp antag | D2 agonist | Menin MLL FP FL | gsp agonist | ClpP mod | PINK1 expr mod
COc1ccc(CN2C[C@@H](CO)O[C@@H](n3cnc4c(N5CCOCC5)ncnc43)C2)cc1 | / | / | -5.9 | / | / | 0.2% | 1.2%
O=C(CS(=O)(=O)Cc1ccccc1)Nc1nc2c(s1)CCCC2 | 9.9% | -1.5% | -2.2 | 3.8 | 2.5% | -0.8% | -1.9%
COc1ccc(C2/C(=C(/O)c3ccc4c(c3)CC(C)O4)C(=O)C(=O)N2CCCN2CCOCC2)cc1 (stereo unspecified) | 3.5% | 9.8% | 4.9 | -2.5 | ? | -3.7% | 1.0%
COc1ccc(C(=O)N2CCCN(C)CC2)cc1S(=O)(=O)N(C)Cc1ccccc1 | / | -2.4% | 4.0 | / | -0.8% | -0.8% | -0.6%
CC(C)OC(=O)c1cccnc1SCc1cc(=O)n2ccccc2n1 | 0.9% | 6.7% | -1.7 | 5.5 | -0.8% | ? | 1.8%[38.3 µM]
Cc1ccccc1OCCC(=O)OCC(=O)NC(=O)c1ccccc1 | / | 6.2% | -0.3 | / | -4.2%[15.4 µM] | -1.6% | -0.4%
NC(=O)C1CCN(C(=O)C(=O)c2cn(CC(=O)N3CCCCCC3)c3ccccc23)CC1 | -2.8% | 2.2% | -1.9 | ? | ? | -2.0% | 1.1%
c1ccc(CN2CCOCCOCCOCCOCCOCCOCC2)cc1 | 2.3% | 6.6% | -7.0 | -1.9 | 24.9% | -0.8% | -1.4%
Cc1cc(C)c(C(=O)COc2cccnc2[N+](=O)[O-])cc1C | 56.2µM* | -9.7% | 10.3 | -1.4 | 22.0% | -0.1% | 5.8%
Cc1cc(Cl)ccc1OCCCC(=O)NCCN1C(=O)S/C(=C\c2cccnc2)C1=O | ? | -29.3% | 2.2 | -0.3 | -25.7% | -1.0% | 0.6%
O=C(c1cccc([N+](=O)[O-])c1)N1CCN(C(=O)c2ccco2)CC1 | 3.8% | 11.8% | -3.1 | 2.8 | -13.2%[15.4 µM] | / | -0.3%
CCN1C(=O)C(=O)N(CC(=O)Nc2ccccc2OC(F)F)C1=O | / | 8.1% | 1.4 | / | -0.7% | -0.5% | 3.4%
COC(=O)c1c(NC(=O)Cc2ccccc2)sc(C)c1C | -26.0% | -2.9% | -2.2 | -1.6 | -45.6%[inhibitor] | -9.9% | 1.4%
CCCCCCP(=O)(O)c1ccccc1 | 18.4% | 3.9% | -2.9 | 1.5 | ? | 0.4% | -3.3%
Cc1nc(SCC(=O)NCCN2C(=O)CSC2=O)nc(C)c1C | / | 3.7% | 3.1 | / | 13.3% | -0.9% | -0.9%
COc1ccc(C(=O)c2ccccc2)c(OCC(=O)N(C)C)c1 | 13.5% | 4.9% | -1.5 | 3.1 | -96.1%[inhibitor] | 0.9% | 1.0%
CCN(CC)S(=O)(=O)c1cccc(NC(=O)COC(=O)CCc2nc3ccccc3s2)c1 | 3.9% | 2.0% | -2.9 | 2.3 | -45.2% | 1.8% | ?
O=C(CC(C(=O)O)c1ccc(Cl)cc1Cl)c1ccc(Cl)cc1 (stereo unspecified) | 12.0% | -6.9% | -4.6 | -2.4 | 45.2% | -1.7% | -2.5%
COc1ccc(OC)c(S(=O)(=O)N2Cc3ccccc3CC2C(=O)O)c1 (stereo unspecified) | 9.1% | -7.4% | -3.5 | 5.0 | 0.4% | -2.2% | 3.8%[38.3 µM]
Cc1cc(NC(=O)C2CCN(S(=O)(=O)c3cnc[nH]3)CC2)ccc1Br | 17.0% | -2.2% | 1.3 | 0.9 | -30.2% | -0.5% | -0.7%
Cc1noc(C)c1CSc1nnc(-c2cccnc2)n1C1CCCCC1C (stereo unspecified) | 6.5% | -11.6% | 0.6 | 0.8 | -26.0% | -2.5% | 3.2%
CCCCN1CC(COCc2ccccc2)Oc2cccc(Oc3ccccc3)c2S1(=O)=O (stereo unspecified) | / | -7.8% | -5.8 | / | / | -2.9% | -0.9%
NC(=O)Cc1ccc(OCc2nn[nH]n2)cc1 | / | / | -4.3 | / | -33.0%[inhibitor] | -2.1% | 0.1%
CCc1cc(C(=O)N2CCCC(C(=O)c3ccc(OC)c(F)c3)C2)n(C)n1 (stereo unspecified) | 10.2% | -11.2% | 0.6 | -1.9 | 10.1% | -1.4% | 0.7%
COc1cc(/C=C2\C(=N)N3N=C(S(C)(=O)=O)SC3=NC2=O)ccc1OC(=O)c1ccco1 | -0.9% | -0.1% | -2.3 | ? | -48.8%[inhibitor] | -11.5% | 1.1%

(continued)
SMILES | Sfp PPTase inh | gsp antag | D2 agonist | Menin MLL FP FL | gsp agonist | ClpP mod | PINK1 expr mod
O=C(NCCC1=CCCCC1)C1CCN(S(=O)(=O)c2ccccc2C(F)(F)F)CC1 | / | -8.2% | -2.1 | / | 5.4% | 1.8% | 3.6%
COc1cc(/C=C/C(=O)OCC(=O)Nc2sc3c(c2C#N)CCC(C)C3)ccc1OCC#N (stereo unspecified) | 12.9% | -6.6% | -1.3 | 0.8 | 35.4%[15.4 µM] | / | -0.3%
Cc1ccccc1C(=O)N1CCN(C(c2ccccc2)c2ccccc2)CC1 | -26.1% | -18.2% | -3.9 | -0.6 | -1.2% | -0.1% | 18.8%
CCOC(=O)N1CCN(CCc2ccccc2)CC1 | 16.1% | 11.1% | 2.3 | -0.5 | 3.3% | 0.1% | 0.9%
Cc1ccc(NC(=O)c2ccco2)c(NC(=O)C2CCCO2)c1 (stereo unspecified) | 18.6% | 3.5% | 0.4 | 3.7 | ? | 0.3% | 0.5%
O=C(CSc1ccccc1)Nc1cccc(S(=O)(=O)N2CCCCC2)c1 | / | -7.1% | 2.5 | / | -6.3% | 1.0% | 1.2%
CC1=C(C(=O)OC(C)C)C(c2ccccc2Cl)CC(=O)N1 (stereo unspecified) | -6.0% | -6.6% | -0.9 | 3.9 | -4.2% | -2.1% | 0.7%
NC(=O)c1ccc(NC(=O)C2CC(=O)N(c3ccc4c(c3)OCCO4)C2)cc1 (stereo unspecified) | / | 15.1% | -4.4 | / | 13.2% | -2.2% | -1.0%
CCn1c2ccccc2c2cnc(N=CN(C)C)c(C#N)c21 | 4.4% | 2.1% | 0.0 | 4.9 | -3.1% | ? | -3.2%
COc1ccc(NC(=O)N2CCOCC2)cc1OC | -1.3% | 4.1% | -1.1 | -0.7 | -61.7%[inhibitor] | -0.4% | -1.8%
CCOc1cc(C(=O)NC(C)CCc2ccccc2)cc(OCC)c1OCC (stereo unspecified) | 34.1% | 9.7% | -4.1 | -2.8 | -40.9%[inhibitor] | -0.9% | 5.0%
C=Cc1ccc2c(c1)OCCOCCOCCOCCOCCO2 | -3.0% | 8.6% | -3.6 | -2.8 | -2.2% | / | 2.1%
CCCCn1c(CN2CCN(c3cccc(Cl)c3)CC2)nc2c1c(=O)n(C)c(=O)n2C | -24.1% | 4.4% | -3.0 | -0.6 | -6.2% | 2.9% | -2.1%
O=C(NCCS(=O)(=O)N1CCN(c2ccccc2)CC1)C1CC(=O)N(c2ccc(F)cc2)C1 (stereo unspecified) | 16.2% | -2.6% | -0.7 | -0.7 | -78.7%[inhibitor] | 0.2%&-2.1% | -0.1%&-0.1%
O=C(Nc1ccc(F)cc1)c1ccc2snnc2c1 | 15.9% | -1.0% | -2.9 | 0.2 | 24.0% | / | -1.0%
O=c1cc(N2CCOCC2)[nH]c(=O)n1-c1ccc(Cl)cc1 | 4.9% | -3.0% | -3.5 | -0.1 | 6.9% | -5.0% | 1.6%
O=C(CNC(=O)c1ccccc1Cl)OC1CCOC1=O (stereo unspecified) | 12.9% | 0.3% | 0.0 | -2.4 | -1.9% | -0.9% | 0.4%
COc1ccc(C(C)(C)C)cc1NC(=O)c1[nH]c(C)c(C(C)=O)c1C | -7.9% | -15.3% | 2.2 | -6.3 | -22.0% | / | 6.5%
CC(=O)Nc1ccc(NC(=O)CS(=O)(=O)c2cn(CC(=O)N3CCCCC3)c3ccccc23)cc1 | / | 6.6% | -2.9 | / | 6.4%[15.4 µM] | 0.2% | 0.5%
O=C(CNS(=O)(=O)c1ccccc1)NNC(=O)C(Cl)Cl | 1.5% | 9.8% | 1.3 | -4.2 | -29.7% | / | -2.3%
Cc1ccc(C)c(OCc2nc(-c3cccnc3)no2)c1 | -0.2% | 5.0% | -1.0 | 3.8 | 5.7% | 0.6% | ?
Cc1ccc(C)c(NC(=S)/C(=C(\[O-])c2ccc(OC(F)F)cc2)[n+]2ccccc2)c1 | ? | 6.4% | -4.1 | 4.1 | 4.1% | / | 3.8%
O=C(COC(=O)C1CCC1)c1c[nH]c2ccccc12 | / | 9.0% | -0.7 | / | 31.1%[15.4 µM] | / | 0.2%
CCN(CC)c1ncnc2c1cnn2Cc1ccc(Cl)cc1 | -4.5% | 22.6% | 3.8 | 1.1 | -9.0%[15.4 µM] | ? | 8.0%
O=C(NCCc1ccc(F)cc1)C1CCN(C(=O)Nc2ccccc2)CC1 | / | -9.8% | -2.4 | / | -22.7% | -0.9% | -0.8%

Following part
SMILES | Sfp PPTase inh | gsp antag | D2 agonist | Menin MLL FP FL | gsp agonist | ClpP mod | PINK1 expr mod
Nc1cccc(S(=O)(=O)Nc2ccccc2)c1 | 19.1% | 0.0% | -4.9 | 1.2 | 1.9% | 0.9% | -1.0%
O=C(O)C1(c2ccccc2)CCC(Nc2ccccc2)C1 (stereo unspecified) | 11.7% | 3.5% | -1.1 | -1.1 | -20.7% | / | 2.7%
CCNC(=O)N1CCNC(=O)C1CC(=O)OC (stereo unspecified) | 6.5% | 5.6% | -0.7 | 2.5 | ? | -0.8% | -3.5%
CCN(CC)C(=O)Cn1c(=O)n(Cc2ccccc2Cl)c2c1c(=O)n(C)c(=O)n2C | / | -13.4% | -0.6 | / | 8.9% | -2.3% | 5.4%[38.3 µM]
N#CC(=C(O)CN1CCN(c2ccccc2F)CC1)c1nc(-c2ccccc2)cs1 | / | -3.2% | 1.9 | / | -1.6% | / | 2.7%
CCCOC(=O)c1ccc(NC(=O)c2cc(Cl)ccc2OC)cc1 | -15.7% | -13.0% | 0.1 | 2.5 | 26.2% | 72.2% | 13.3%
COc1ccccc1CN1CC(C(=O)NCCn2nc(C)cc2C)CCC1=O (stereo unspecified) | 15.7% | 5.9% | -3.9 | / | -56.1%[inhibitor] | -1.5% | -1.7%
Cc1cc(Nc2ccccc2)n(-c2ccccc2)n1 | 0.7% | 7.7% | -2.5 | 2.9 | -25.6% | 2.2% | 17.9%
COc1ccccc1C(=O)N1CCCN(C(=O)c2ccccc2OC)CC1 | 9.6% | 1.3% | -1.8 | 2.8 | -4.6% | -4.7% | -1.2%
